CSC inhib: cancer stem cell viability inhibitors, primary screen, luminescence; cancer stem cell-like cells viability; inhibition, % at 7.5 µM; 1.1% of 300,000 active; AID 2717, 2010;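 active = mean at 75% or more and at least half the replicates too; tested in HMLE shEcad cells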;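 also: 0% = median of negative and 100% = median of positive control wells; the first replicate is given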
PABP polyA inh: PABP poly(A) RNA binding inhibitors, primary screen, biochemical, fluorescence polarization, uHTS; Polyadenylate-binding protein 1 (Homo sapiens), P11940; inhibition, % at 35 µM; 1% of 290,000 active;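 active = 50% or more with normal probe brightness, or confirmed in later tests; about a fifth of its hits are not listed in these tables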;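 also: calls also rest on retests at 20 µM and on dose response follow-up; controls were probe without protein and protein plus probe with vehicle; some compounds called inactive have numbers as strong as hits; many hits fall short of the cut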
Target sequence (P11940 whole entry, looked up): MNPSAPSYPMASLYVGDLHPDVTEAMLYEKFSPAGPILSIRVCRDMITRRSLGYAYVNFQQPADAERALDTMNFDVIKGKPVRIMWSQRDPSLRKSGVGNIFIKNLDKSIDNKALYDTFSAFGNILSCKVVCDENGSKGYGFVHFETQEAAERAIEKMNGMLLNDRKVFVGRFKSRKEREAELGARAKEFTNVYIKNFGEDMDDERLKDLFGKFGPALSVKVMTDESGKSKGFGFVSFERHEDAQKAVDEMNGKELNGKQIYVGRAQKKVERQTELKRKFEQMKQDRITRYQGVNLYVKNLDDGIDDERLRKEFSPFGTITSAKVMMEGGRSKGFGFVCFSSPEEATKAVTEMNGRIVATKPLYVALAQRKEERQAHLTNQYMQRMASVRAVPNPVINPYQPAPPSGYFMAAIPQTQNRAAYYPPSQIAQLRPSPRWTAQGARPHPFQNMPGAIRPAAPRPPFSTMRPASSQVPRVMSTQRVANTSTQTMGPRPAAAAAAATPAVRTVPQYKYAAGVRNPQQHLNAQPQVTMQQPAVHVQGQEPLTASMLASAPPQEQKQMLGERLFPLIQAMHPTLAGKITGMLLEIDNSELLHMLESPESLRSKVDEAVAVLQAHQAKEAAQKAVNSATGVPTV
eIF4H inh: human eIF4H binding inhibitors, primary screen, translation initiation inhibitor project, biochemical, uHTS, fluorescence polarization; inhibition, % at 35 µM; eIF4H fluorescence polarization binding assay; 0.94% of 290,000 active; Eukaryotic translation initiation factor 4H (Homo sapiens), Q15056; AID 2012, 2009;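 active = 50% or more with normal probe brightness, or confirmed in later tests; about a fifth of its hits are not listed in these tables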;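 also: calls also rest on retests at 20 µM and on dose response follow-up; 0% = protein and probe with vehicle and 100% = probe without protein; strong numbers were not always called active; many hits fall short of the cut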
HIV Env fusion: inhibitors of HIV-1 Env-driven cell-cell fusion, primary screen, HeLa-JRFL effector, CEM21 target cells, luciferase | inhibition, % at 12.3 µM | 1.1% of 360,000 active | AID 651610, 2012;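 active = mean replicate inhibition score of at least 50 and every replicate individually at or above 50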;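 also: 0% = plate neutral controls and 100% = maraviroc near 300 nM; one replicate is shown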
MT1-MMP act inh: blockers of MT1-MMP proenzyme processing, primary screen, HT1080 RFP-PRO-GFP cells, GFP/RFP fluorescence | GFP/RFP ratio change, % at 20 µM | GFP/RFP ratio fluorescence, overnight; percent of plate control window, DMSO zero | 0.061% of 360,000 active;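 active = GFP/RFP ratio change of at least 30% with cell ATP level not reduced by more than half and red fluorescence within 50% of control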; also: strong numbers were not always called active
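Test system: HT1080 RFP-PRO-GFP cells; Benchmarks: DMSO and RFP-L50D-GFP cell wells; Timing: cells overnight before dosing, compound overnight, 37 °C, 5% CO2; Compound: one 20 µM compound dose with 1% DMSO; Read-out: GFP/RFP fluorescence ratio.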
Rce1 inh: yeast Rce1p protease inhibitors, primary screen, biochemical, fluorescence, cell-free homogeneous. yeast membranes, quenched prenylated peptide cleavage fluorescence. AID 2563, 2010. calls only. 0.27% of 290,000 active. CAAX prenyl protease 2 (Saccharomyces cerevisiae (strain ATCC 204508 / S288c)), Q03530;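 active = fall in fluorescence gain of 50% or more versus controls, with final raw signal at or below 3038400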;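 also: plate controls were neutral control wells for no effect and wells lacking membranes for full effect; tested at 10 µM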
Target sequence (Q03530 whole entry, looked up): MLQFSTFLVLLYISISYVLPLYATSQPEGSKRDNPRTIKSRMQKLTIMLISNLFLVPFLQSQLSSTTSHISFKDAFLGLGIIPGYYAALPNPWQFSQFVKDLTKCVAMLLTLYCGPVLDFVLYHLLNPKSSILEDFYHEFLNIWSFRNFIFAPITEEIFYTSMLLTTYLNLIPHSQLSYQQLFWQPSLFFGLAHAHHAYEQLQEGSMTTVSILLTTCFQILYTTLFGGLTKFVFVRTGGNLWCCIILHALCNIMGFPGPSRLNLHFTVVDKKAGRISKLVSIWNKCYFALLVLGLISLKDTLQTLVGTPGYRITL
UUG fidelity: modulators of yeast start codon fidelity, primary screen, whole organism, S. cerevisiae, single point, plate reader | S. cerevisiae UUG-firefly luciferase reporter, luminescence/redox ratio | 0.13% of 350,000 active | AID 602363, 2012 | activity score, % at 18.7 µM;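 active = replicate mean at a twofold rise or more, about +100% in these data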;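 also: firefly luciferase made from a UUG start codon reports start codon fidelity; reporter light over untreated wells divided by growth signal over untreated wells; some hits fall short of that in this replicate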
MT1-MMP act inh RFP: also measured in MT1-MMP act inh; calls as there; RFP signal change, %; measured here: RFP expression control read;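 0 = vehicle wells; hits needed this value within 50% of zero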
Active calls of the source: *; i = inactive; . = no result given.

The line under a structure holds: UUG fidelity, Rce1 inh, HIV Env fusion, PABP polyA inh, MT1-MMP act inh RFP, CSC inhib, MT1-MMP act inh, eIF4H inh
- O=C(Nc1cc([N+](=O)[O-])ccc1O)c1ccc2c(c1)C(=O)N(Cc1ccco1)C2=O
  -6, i, -13, 44, 6, -4, 8, 21
- Cc1ccc(-c2nn(C)c(=O)c3ccccc23)cc1CNS(C)(=O)=O
  15, i, ., 10, 1, -20, 6, 5
- Cc1ccccc1P(=O)(CO)c1ccccc1C
  -16, i, ., -5, 5, 9, 6, 1
- CC(C)Oc1ccc(C(=O)CCN2CCCCC2)cc1
  -11, ., -8, -2, 4, 10, 2, -8
- COc1ccc(C(=O)NC(=S)NCC2CCCO2)cc1 (stereo unspecified)
  0, i, ., -4, 1, ., -2, -9
- CSc1ccc(CN2CCC(Oc3ccc(C(=O)N4CCCC4)cc3)CC2)cc1
  1, i, -3, -3, 2, -10, 5, -5
- c1ccc(CSc2nc3ccccc3[nH]2)cc1
  -16, i, -263, 17, -4, 1, 3, 8
- COc1ccccc1CNc1ccc(Br)cn1
  -11, i, -31, -5, 1, ., 3, -10
- CCOC(=O)C(C)Sc1ncc(OC)c(Sc2ccc(Cl)cc2)n1 (stereo unspecified)
  -1, i, -19, -4, -3, -1, 1, -1
- COc1ccccc1NC=C1C(=O)OC(C)(C)OC1=O
  -18, i, -9, 3, 1, -12, 3, 4
- O=C(Nc1ccc(F)cc1)C(Cc1ccccc1)n1cccc1 (stereo unspecified)
  ., i, 27, 2, -1, 7, -3, 3
- CC(C)[C@H](NC(=O)c1ccco1)C(=O)OCC(=O)N(C)c1ccccc1
  -18, ., -2, -4, 4, -20, 0, -12
- C/C(=N\NC(=O)c1cccc(C)c1)c1ccc(N2CCOCC2)cc1
  5, ., ., -7, -4, -6, -6, -4
- COc1ccc(C(=O)N2CCCC(c3nc(-c4cccs4)no3)C2)cc1 (stereo unspecified)
  1, i, ., 8, -3, -11, -5, 2
- O=S(=O)(c1ccc(F)cc1)N1CCC2(CC1)OCCO2
  ., i, 5, -12, -1, -1, -4, 4
- CC(=O)c1cccc(Nc2nc(-c3cccc([N+](=O)[O-])c3)cs2)c1
  -18, i, 72*, -5, -3, ., 5, 2
- CCCN(CCC)S(=O)(=O)c1ccc(NS(=O)(=O)c2ccc(F)cc2)cc1
  14, i, 9, -3, 0, -4, 9, -2
- CC(C)N(CCCNC(=O)c1ccc(CS(=O)(=O)c2c(Cl)cccc2Cl)o1)Cc1ccccc1
  -1, i, 7, ., 0, -7, -4, .
- CC(Oc1ccc(Cl)cc1)C(=O)NNC(=S)NC(=O)c1ccco1 (stereo unspecified)
  -63, i, 19, -6, -1, 7, 4, 16
- CC(C)(C)c1nc(NCC2CCCO2)c2nnn(Cc3ccccc3)c2n1 (stereo unspecified)
  -11, i, ., 1, -6, -8, -3, -6

An excerpt from the list above, for reference:
The line under a structure holds: UUG fidelity, Rce1 inh, HIV Env fusion, PABP polyA inh, MT1-MMP act inh RFP, CSC inhib, MT1-MMP act inh, eIF4H inh
- CC(C)N(CCCNC(=O)c1ccc(CS(=O)(=O)c2c(Cl)cccc2Cl)o1)Cc1ccccc1
  -1, i, 7, ., 0, -7, -4, .
- CC(Oc1ccc(Cl)cc1)C(=O)NNC(=S)NC(=O)c1ccco1 (stereo unspecified)
  -63, i, 19, -6, -1, 7, 4, 16
- CC(C)(C)c1nc(NCC2CCCO2)c2nnn(Cc3ccccc3)c2n1 (stereo unspecified)
  -11, i, ., 1, -6, -8, -3, -6

(cont.)
The line under a structure holds: UUG fidelity, Rce1 inh, HIV Env fusion, PABP polyA inh, MT1-MMP act inh RFP, CSC inhib, MT1-MMP act inh, eIF4H inh
- O=C(C1=C(O)C(=O)N(CCN2CCOCC2)C1c1ccccn1)c1cccs1 (stereo unspecified)
  -2, i, -49, 23, 3, -14, -2, 16
- O=C(Nc1nncs1)c1c(F)c(F)c(F)c(F)c1F
  -13, i, 9, 7, 7, -6, 2, 7
- CC(C)Oc1ccc(CCc2nnc(SCC(=O)O)n2-c2ccccc2)cc1
  ., i, -1, 9, 0, -19, -3, -6
- Cc1cccc(Cc2nnc(CCC(=O)N3CCCC(CN4CCOCC4)C3)o2)c1 (stereo unspecified)
  -24, i, -1, -10, -2, -11, -2, -12
- Cc1cc(C)n(Cc2ccc(C(=O)Nc3cccc(Br)c3)o2)n1
  -5, i, ., 3, -6, -7, 9, 0
- COC(=O)c1c(NC(=O)c2cccs2)sc2c1CCCC2
  -4, i, ., 7, 1, 53, -3, -2
- O=C(Nc1cccc(-c2csc(Nc3cccc(C(F)(F)F)c3)n2)c1)c1ccccc1
  -18, i, 14, 0, -3, 130*, 7, 3
- O=C(C1CCN(S(=O)(=O)c2cccs2)CC1)N1CCN(c2ccccc2)CC1
  15, ., -54, 1, 3, -5, 1, -5
- Cc1c(C)c(C)c(S(=O)(=O)Nc2ccc3[nH]c(=O)[nH]c3c2)c(C)c1C
  -47, i, 2, -4, -13, 1, 3, 4
- Cc1nc2c(ncn2-c2ccccc2)c(=O)n1NC(=O)CN1CCCC1
  ., i, -17, 8, 1, 1, 0, -9
- N#CC1(NC(=O)COC(=O)Cc2c[nH]c3ccccc23)CCCCC1
  -7, ., 7, ., 8, ., 3, .
- FC(F)(F)c1cc(-c2ccccc2)nc(N2CCCCCC2)n1
  -13, i, ., -3, 2, 24, 2, -10
- O=C1CN(C(=O)COc2ccccc2)c2ccccc2N1
  -14, i, 7, 6, 0, -6, 0, -11
- COc1ccccc1CCC(=O)Nc1cc(S(=O)(=O)N2CCCCC2)ccc1N1CCN(C)CC1
  -4, i, -4, ., 3, ., 0, .
- Cn1cccc1-c1cc(C(=O)N/N=C/c2cccc(O)c2)[nH]n1
  -6, i, -12, 9, 3, -8, 5, 2
- CN(Cc1ccccc1)C(=O)CN1C(=O)c2ccc([N+](=O)[O-])cc2C1=O
  -7, i, -11, 9, -1, 18, -2, 8
- O=c1[nH][nH]c(C(F)(F)F)c1C=NCc1cccc(Cl)c1
  -8, i, ., -1, -1, -3, -5, -8
- O=C(CSc1nc(-c2ccccc2)c(-c2ccccc2)o1)Nc1nnc(-c2ccccc2)s1
  -7, i, -66, -8, -10, 9, -11, -11
- COC(=O)CN1C(=O)COc2ccc(S(=O)(=O)N3CCOCC3)cc21
  -19, i, -2, -4, 2, -11, -2, -6
- O=C(Nc1ccc(N2CCN(C(=O)c3ccco3)CC2)cc1)c1ccc(F)cc1
  -12, i, -55, 2, 1, -4, 1, 1

(cont.)
The line under a structure holds: UUG fidelity, Rce1 inh, HIV Env fusion, PABP polyA inh, MT1-MMP act inh RFP, CSC inhib, MT1-MMP act inh, eIF4H inh
- Cn1c(N2CCN(S(=O)(=O)c3ccc(F)cc3)CC2)nc2ccccc21
  ., i, 0, -8, -5, 10, -1, 10
- O=C(/C=C/c1ccc(Cl)cc1)NC(=S)NN1CCCCC1c1cccnc1 (stereo unspecified)
  ., i, ., 11, ., 12, ., -5
- Cc1cc(NC(=O)CSc2nc(N)c(NC(=O)c3ccccc3)c(=O)[nH]2)no1
  ., i, 11, 1, 7, -9, 5, -7
- Cc1cc(-c2ccc(Cl)cc2)c2cnn(C(C)C)c2n1
  -8, i, 17, -5, -5, 16, -4, 0
- CCC(C)c1ccc(NS(=O)(=O)c2c(C)[nH]c(=O)[nH]c2=O)cc1 (stereo unspecified)
  7, i, 1, 5, -5, -39, -2, -8
- O=C(c1ccc2c(=O)n3c(nc2c1)CCCCC3)N1CCN(c2ccccc2)CC1
  -14, i, 9, -2, -2, 49, 1, 4
- O=C(/C=C/Nc1ccc(F)c(Cl)c1)c1ccccc1
  -4, i, -171, 7, 6, 0, 4, -3
- CSc1cccc(NC(=O)N2CCc3ccc(NC(=O)c4ccccn4)cc3C2)c1
  -9, i, -6, -4, -4, -6, 5, -14
- CCC(C)(C)NC(=O)Cc1ccc(F)cc1
  ., i, 9, 4, 5, 9, 2, 1
- CCOC(=O)c1cc(OC(=O)c2ccccc2)n(-c2ccccc2)n1
  -17, i, -9, 3, 6, -2, 0, 9
- CC1(C)C2CC=C(/C=N/NC(=S)Nc3cccnc3)C1C2 (stereo unspecified)
  ., i, 16, -6, 3, -19, 1, 14
- COc1ccc(CNC(=O)C2CCN(S(=O)(=O)N3CCCCC3)CC2)c(OC)c1
  -10, i, 1, 5, 0, -10, 1, -5
- CC(Nc1c[nH]c(=O)[nH]c1=O)c1ccccc1 (stereo unspecified)
  0, i, 4, 1, -1, ., -4, -7
- CC(C)(C)c1ccc(OCC(=O)NCCN2CCOCC2)cc1
  -11, i, 6, 0, -5, -6, 2, 4
- COc1ccc(CCN2C(=O)CN(Cc3ccccc3)CC2=O)cc1OC
  ., i, 3, 3, 0, -5, -2, 8
- CC(C)C[C@@H](CSc1ccc(Br)cc1)N1CCN(C)CCC1=O
  -33, i, 4, -4, -4, -1, -7, -1
- COc1ccc(-n2nc3c(c2NC(=O)c2cc4ccccc4o2)CS(=O)(=O)C3)cc1
  23, i, 12, 12, -3, -5, -1, -6
- Cc1ccccc1C(=O)N1CCN(c2ncnc3c2cnn3-c2ccccc2)CC1
  9, i, 43, -1, -11, 5, -1, -1
- CC(=O)Nc1cccc(Nc2ccc(C#N)cc2)c1
  -4, ., -16, ., 1, ., 7, .
- Cc1oc(-c2cccs2)cc1C(=O)N1CCCC(C)(C(=O)O)C1 (stereo unspecified)
  -24, ., 5, ., 2, ., -3, .

Next part.
The line under a structure holds: UUG fidelity, Rce1 inh, HIV Env fusion, PABP polyA inh, MT1-MMP act inh RFP, CSC inhib, MT1-MMP act inh, eIF4H inh
- CC(=O)c1cc2c(cc1NC(=O)CSc1ncccn1)OCO2
  -16, ., 18, ., 2, ., 3, .
- COC(=O)CSC1=C(C#N)C(c2ccccc2F)CC(=O)N1 (stereo unspecified)
  -10, i, 5, 10, -10, 0, 0, -5
- O=C(CCn1c(=O)sc2ccccc21)Nc1nccs1
  -23, i, -108, 1, 1, 1, 5, 3
- Cc1ccc(N(C(=O)CNC(=O)c2ccco2)C(C(=O)NC2CCCC2)c2cccnc2)c(C)c1 (stereo unspecified)
  -8, i, -4, -1, 3, ., 2, -3
- COCCn1nnnc1C(CC(C)C)N1CCN(C(=O)c2ccco2)CC1 (stereo unspecified)
  1, i, ., 2, 0, ., -4, -8
- CNC(=O)C1CCN(S(=O)(=O)c2c(C)noc2/C=C/c2ccc(OC)cc2)CC1
  -15, i, 1, -13, 2, -4, 6, -6
- O=C(NCC(O)COc1ccc([N+](=O)[O-])cc1)Nc1ccccc1 (stereo unspecified)
  0, i, -13, -20, -1, -14, 2, -4
- COc1cc(C(=O)N/N=C/c2ccc(OC(=O)c3ccccc3Cl)cc2)ccc1O
  2, i, -5, 8, -1, -1, -1, -9
- Cc1ccc(S(=O)(=O)CCC(=O)OCc2cc(=O)oc3cc(C)ccc23)cc1
  -11, ., -2, ., 0, 6, 3, .

Screens: PubChem, several laboratories
